KSHV LANA nucl: inhibitors of KSHV LANA binding to nucleosomes | hit rate 0.3% among 51,000 | z-score (no concentration beside the values) | FITC-LANA1-23 / chicken nucleosome fluorescence polarization; hits give low values;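 active = both repeat wells score below -2 in polarization z-score versus plate sample wells, excluding overly bright wells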;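 also: 100 nL library stock added to about 30 µL; numbers are from one replicate; some results filed as inactive read as strong as hits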
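Test system: purified chicken nucleosomes with FITC-labelled LANA N-terminal peptide (1-23); Input: 240 nM purified chicken nucleosomes (480 nM peptide binding sites), final; Medium: TEN-BT buffer, pH 7.5; Timing: 10–45 min, room temperature; Technique: fluorescence polarization, 480 nm excitation, 535 nm parallel and perpendicular emission; Replication: duplicates.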
BasE inh: BasE siderophore biosynthesis inhibition; inhibition, % (no concentration beside the values); purified BasE, fluorescence polarization binding displacement; hit rate 0.1% among 84,000; AID 485350;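 active = both replicates above 25% with normal brightness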;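 also: 0% = negative plate control signal and 100% = positive plate control signal; stock transfer was 100 nL into about 30 µL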
* = called active by the depositor; nt = not tested or not shown; & = joins results of further samples.

SMILES | KSHV LANA nucl | BasE inh
CN(CC(=O)N1CCc2ccccc21)S(=O)(=O)c1ccc2c(c1)CCCC(=O)N2 | nt | -1.3
CC(=O)N[C@@H](CSC/C=C(\C)CCC=C(C)C)C(=O)O | 0.0615 | -2.0
Cc1cc2nn(-c3ccccc3)nc2cc1NC(=O)C(C)C | -0.672 | 4.4
Cc1ccc(NC(=O)Nc2ccc(C(N)=O)cc2)cc1 | -0.222 | 0.9
Cc1c(N2C(=O)c3ccccc3C2(O)c2ccccc2)c(=O)n(-c2ccccc2)n1C (configuration not stated) | 1.15 | -1.6
CCOC(=O)c1c(SC)nc2ccc(Cl)cc2c1N1CCN(C)CC1 | 0.206 | 0.6
O=C(O)CCSC1CC(=O)N(c2ccc(F)cc2)C1=O (configuration not stated) | nt | 0.5
Cc1cc(C)nc(/N=C(/N)N2CCCCC2)n1 | -0.621 | -0.8
CSC1=NC=C(C#N)C2=NC(c3c(F)cccc3Cl)NN12 (configuration not stated) | 0.23 | 2.6
CC1=C/C(=N/NC(=O)C2CC2)CC1 | nt | 3.0
COc1ccc(C(=O)NCC(=O)OCc2nc3ccccc3c(=O)n2CC#N)cc1OC | nt | -2.7
O=C(CN1CCCc2ccccc21)N1CCCc2ccccc21 | 0.179 | nt
Nc1ccc2nc(-c3ccc(N)c(Cl)c3)[nH]c2c1 | -0.504 | 1.0
CCOC(=O)c1cnc(NNC(=O)C(F)(F)F)nc1C(F)(F)F | -0.599 | 1.2
Cc1cc(=O)n(C(N)=S)[nH]1 | -0.421 | 2.0
Cc1ccc(C2=NCN(c3ccc(C(=O)O)cc3)C(=S)N2)cc1 | nt | 0.3
CN(C)CC[C@@H](c1ccc(Br)cc1)c1ccccn1 | 0.034 | nt
Cc1nn(-c2ccccc2)c2sc(C(=O)NCCc3ccc(S(N)(=O)=O)cc3)cc12 | nt | -0.2
C=CCn1c(/N=C/c2ccc(Cl)cc2)nc2ccccc21 | nt | -3.0
CCCCCc1c(O)c2ccccc2[nH]c1=O | -0.02 | 1.8
CC1SCCN1S(=O)(=O)c1ccc(Br)cc1 (configuration not stated) | nt | 2.5
O=C(NC1CCS(=O)(=O)C1)c1c(Cl)cccc1Cl (configuration not stated) | nt | 0.4
CC(C)NC[C@H](O)COc1cccc2ccccc12 | -0.193&0.313&0.086&-0.325 | 0.0&-1.6
Cn1nc(C(C)(C)C)c(NC(=O)c2ccc(F)cc2)c1C(C)(C)C | nt | 2.0
CC(=O)NC(c1ccccc1F)C1CCCCC1=O (configuration not stated) | 0.237 | nt

(listing goes on)
SMILES | KSHV LANA nucl | BasE inh
CCN1C(=O)/C(=C\C(C)=C\c2ccccc2)SC1=S | nt | 2.2
C=CCn1c(SC(CCO)C(=O)NCc2ccco2)nc2sc3c(c2c1=O)CCC3 (configuration not stated) | -0.86 | -1.3
COc1cc2c(cc1OC)C(C)N(c1ncnc3c1cnn3C)CC2 (configuration not stated) | -1.4 | -0.2
CN(Cc1coc(-c2ccccc2)n1)Cc1coc(-c2ccccc2)n1 | nt | -37.3
O=c1[nH]n(-c2ccccc2Cl)c(=O)c2ccccc12 | -0.593 | 1.1
CC1COc2c(N3CCN(C)CC3)c(F)cc3c(=O)c(C(=O)N4CCN(c5ncccn5)CC4)cn1c23 (configuration not stated) | nt | -0.4
CN1CCN(CCCN2c3ccccc3Sc3ccc(C(F)(F)F)cc32)CC1 | -0.186&-0.168&0.204&0.397&1.23&-0.387 | -0.8&-1.2&-1.2
C=CCn1c(Cl)c(/C=N/NC(N)=O)s/c1=N\S(=O)(=O)c1cccs1 | nt | -0.5
CCCC1NC(=S)N(c2ccccc2)N1 (configuration not stated) | -0.127 | -1.0
Cc1ccc(Cn2ccsc2=NC(=O)CSc2nnc(-c3ccc(Cl)cc3)o2)cc1 | nt | 1.0
Oc1ccc2ccccc2c1CN1CCOCC1 | 1.22 | -0.6
CC(C)(C)n1ncc2c(=O)n(CC(=O)NC3CCCC3)cnc21 | 2.38 | 0.0
CCN(CC)c1ccc(NC(=O)Nc2ccc(OCc3ccccc3)cc2)cc1 | nt | 3.1
COc1cc(C2C(C#N)=C(N)Oc3n[nH]c(C(F)(F)F)c32)ccc1OCC(N)=O (configuration not stated) | 0.491 | 0.1
COc1cc2c(C(=O)NC3CCCC(C)C3C)cn(C)c(=O)c2cc1OC (configuration not stated) | -0.457 | 0.2
c1ccc2c(c1)NC(c1ccc3c(c1)CCO3)n1cccc1-2 (configuration not stated) | nt | -1.2
CCCCNS(=O)(=O)c1ccc2nc(SCCC)[nH]c2c1 | nt | 0.4
CC(OC(=O)c1ccc2ccccc2c1O)C(=O)N1CCc2ccccc21 (configuration not stated) | nt | -0.2
Cc1cccc(C(=O)N2CCC(C)CC2)c1 | 0.126 | -1.3
CC1(C)N=C(C(=O)c2ccccc2)N(O)C1(C)O (configuration not stated) | nt | 3.5
O=C1CCC(C(=O)OCC(=O)Nc2ccc(N3CCOCC3)cc2)=NN1 | nt | 1.9
CC1=CC(=C(C#N)C#N)C=C(C)N1CCC(C)C | nt | 3.4
CCOCC(=O)NCc1ccc(OC)cc1 | 0.308 | -1.0
CC(C)(C)OC(=O)N1CCC(CNS(=O)(=O)c2cccc3nonc23)CC1 | 0.007 | 2.0
CCOc1cc(C(=O)NCCN(C)C)cc(OCC)c1OCC | 0.198 | 1.9

Next section:
SMILES | KSHV LANA nucl | BasE inh
c1cn2cc(Cc3nnc4n3CCCCC4)nc2s1 | nt | 0.6
COc1ccc(C(=O)NCc2nnc(SC)n2-c2ccc(OC)cc2)cc1 | -0.963 | 0.1
COC(=O)Cn1nnnc1-c1ccc(C)cc1 | -1.51 | -0.6
O=C(NCCc1ccc(Cl)cc1)C1CCN(C(=O)NC2CCCCC2)CC1 | -0.902 | 0.8
N#CC(C#N)=CNc1cc(C(F)(F)F)ccc1N1CCOCC1 | 0.0875 | 2.1
O=C(CCCc1cccs1)Nc1nccs1 | nt | -2.7
O=c1c(Cl)c(Cl)cnn1Cc1ccccc1 | -1.06 | 4.9
CC(C)NC(=O)/C(=N\O)c1ccccc1 | nt | 1.4
O=C(O)COCC(=O)Nc1ccc2c(c1)CCC2 | -0.274 | -1.4
CCCNCC1CCCO1 (configuration not stated) | 0.114 | -2.2
C=C(C)C1CC=C(CN2CCC(C(=O)OCC)CC2)CC1 (configuration not stated) | 1.15 | 0.2
Cc1cc(C)c(C)c(S(=O)(=O)N2CCN(CCn3c(C)csc3=O)CC2)c1C | nt | 0.3
COC(=O)CC1C(=O)NC2CCCCC2N1C(=O)c1ccccc1 (configuration not stated) | -0.742 | 0.1
C=Cn1cnc2c1c(=O)n(C)c(=O)n2C | nt | 2.1
CN(C)C(=O)c1ccc(Oc2ccc(C(=O)N(C)C)cc2)cc1 | nt | 2.0
COc1ccc(Nc2cc(C)c(C#N)c3nc4ccccc4n23)cc1 | nt | 2.4
N#Cc1ccccc1S(=O)(=O)N1CCN(S(=O)(=O)c2ccccc2C#N)CC1 | 0.305 | 4.5
COc1ccc(C(CC(=O)c2ccccc2)Sc2ccccc2N)cc1 (configuration not stated) | nt | 1.7
COc1ccc(CN2CCN(c3ncnc4onc(-c5ccc(F)cc5)c34)CC2)c(OC)c1OC | nt | -0.6
NNC(=O)CSC(=S)N1CCCC1 | nt | 0.9
COc1ccc2oc(=O)c(C(=O)N3c4ccccc4CC3C)cc2c1 (configuration not stated) | 0.8 | 3.6
CC(NC(=O)Cn1[nH]c(=O)c2ccccc2c1=O)c1ccc(S(N)(=O)=O)cc1 (configuration not stated) | nt | 1.6
O=C(NCCN1CCOCC1)NC(c1ccccc1)c1ccccc1 | 1.47 | -0.6
CCN=C1Sc2nc3ccc(OCC)cc3cc2CN1CCOC | 2.34 | -1.3
CC(NC(=O)CSc1n[nH]c(N)n1)c1ccccc1 (configuration not stated) | nt | 2.9

Entries of single compounds as entered above:
C=Cn1cnc2c1c(=O)n(C)c(=O)n2C is entered as KSHV LANA nucl: nt; BasE inh: 2.1
c1cn2cc(Cc3nnc4n3CCCCC4)nc2s1 is entered as KSHV LANA nucl: nt; BasE inh: 0.6

Ordered by value in KSHV LANA nucl (largest number first): 3 from the list above
structure	KSHV LANA nucl
O=C(NCCN1CCOCC1)NC(c1ccccc1)c1ccccc1	1.47
N#CC(C#N)=CNc1cc(C(F)(F)F)ccc1N1CCOCC1	0.0875
O=C(O)COCC(=O)Nc1ccc2c(c1)CCC2	-0.274

Further entries:
SMILES | KSHV LANA nucl | BasE inh
Cc1cc(C(=O)Nc2ccc(N3CCOCC3)cc2)c(C)s1 | nt | 1.9
C/C(=N\N)c1c(-c2ccccc2)[nH][nH]c1=O | nt | 0.3
CCN(CC)CCCNc1ccc(-c2nnc(-c3ccc(OCC(C)C)cc3)o2)cn1 | nt | -3.2
O=C(Cc1cn2ccsc2n1)N/N=C/c1ccc2ncccc2c1 | nt | 4.3
O=C(CCn1c(=O)c2cccn2c2cccnc21)N1CCN(c2ccccn2)CC1 | 0.246 | 1.0
O=S(=O)(c1ccccc1)c1ccccc1/C=N\O | -0.617 | -0.9
CN(C)C(=O)CSc1cccc2cccnc12 | -0.463 | 0.1
CC(Sc1nnc2n1CCCCC2)C(=O)c1c[nH]c2ccccc12 (configuration not stated) | nt | -1.9
Cc1ccc(-n2cc(-c3ccccc3)c3c(NCCN4CCOCC4)ncnc32)cc1 | -0.049 | 2.3
COc1ccc(-c2c(C)oc3cc(OC)ccc23)cc1 | nt | 0.2
COc1ccc(CCNC(=O)c2ccnc(C(C)(C)C)c2)cc1OC | -0.911 | 0.4
CN(C(=O)CCc1ccccc1)c1nnc(-c2ccncc2)s1 | 0.886 | -0.6
CCCCC(=O)O[C@H]1CCC2C3CCc4cc(O)ccc4C3CC[C@@]21C (some centres not stated) | 0.028&-1.05 | -0.4
COC(=O)/C=C1\SC(=NC(=O)c2cccc(Cl)c2)NC1=O | 0.133 | -0.2
Cc1c(C#N)c(O)n(CCO)c(=O)c1N=Nc1cccc(C(=O)O)c1 | 0.208 | -7.9
CC(=O)NCc1ccc(C(=O)COC(=O)c2ccc(S(=O)(=O)N3CC(C)CC(C)C3)cc2)o1 (configuration not stated) | nt | -0.5
Nc1nc(CN2CCCC2c2ccc3c(c2)OCCCO3)nc(Nc2ccccc2)n1 (configuration not stated) | nt | -2.1
CC(C)(C)NC(=O)CN1CCN(C(=O)CSc2nnc3c(n2)Nc2ccccc2S3)CC1 | nt | 2.9
CN(C)/C=N/S(=O)(=O)c1ccc(-n2nc(C(F)(F)F)cc2-c2cccs2)cc1 | nt | 2.7
O=C(c1c2c(nc3ccccc13)CCCC2)N1CCCCC1 | nt | -1.3
CC(C)Sc1nnc(NC(=O)C(C)(C)C)s1 | -0.664 | 0.6
COc1ccc(-c2cc(C)no2)cc1S(=O)(=O)Nc1ccc(C)c(N(C)C)c1 | nt | 1.6
Fc1ccc(Nc2nc(Nc3ccc(F)cc3)nc(N3CCCCC3)n2)cc1 | nt | -0.5
CCCCn1c(=O)c(CCC(=O)OCC(=O)c2ccc3c(c2)OCCO3)nc2ccccc21 | nt | 1.7
CCn1c(C)c(C2N3CC4(C(C)C)CN2CC(C(C)C)(C3)C4=O)c2ccccc21 (configuration not stated) | -0.967 | 1.7

Continued.
SMILES | KSHV LANA nucl | BasE inh
COc1ccc2c(c1)c(C(=O)CSc1nnc3c(n1)CCCC3)c(C)n2C | -0.232 | 2.2
CN1C(=O)C2C(c3ccccc3)NN(C)C2C1=O (configuration not stated) | 1.63 | -2.3
CCCC1(C(=O)OC)NC(c2cc(OC)c(OC)c(OC)c2)C2C(=O)N(c3ccc(C)cc3)C(=O)C21 (configuration not stated) | -1.33 | -0.7
CN1CCN(CC(=O)NCCc2ccc(F)cc2)CC1 | -1.02 | 0.6
O=C1NC2(c3ccccc3)NC(=O)NC2(c2ccccc2)N1 (configuration not stated) | nt | -0.2
Nc1ccc2c(c1)nc1n2CCCCC1 | nt | -0.1
CC(C)CNC(=O)CSc1ccc(Cl)cc1 | -0.151 | -2.2
COc1ccc(CCN2CN=C(NC#N)NC2)cc1OC | -1.34 | -0.8
CO[C@H]1/C=C/O[C@@]2(C)Oc3c(C)c(O)c4c(O)c(c(C=NN5CCN(C)CC5)c(O)c4c3C2=O)NC(=O)/C(C)=C\C=C\C(C)[C@H](O)[C@@H](C)[C@@H](O)[C@@H](C)[C@@H](OC(C)=O)[C@@H]1C (some centres not stated) | 0.695&-0.219 | -2.0
S=c1[nH]c(-c2ccccc2)cn1/N=C/c1ccc2c(c1)OCCO2 | nt | -0.6
CCS(=O)(=O)Cc1cccs1 | 0.399 | 0.7
O=C1CN(c2ccccc2)CC(=O)N1 | 0.974 | 0.5

Exported as comma-separated lines: part of the list above
SMILES,KSHV LANA nucl,BasE inh
CCOC(=O)c1c(SC)nc2ccc(Cl)cc2c1N1CCN(C)CC1,0.206,0.6
O=C(CCCc1cccs1)Nc1nccs1,nt,-2.7
O=S(=O)(c1ccccc1)c1ccccc1/C=N\O,-0.617,-0.9
C/C(=N\N)c1c(-c2ccccc2)[nH][nH]c1=O,nt,0.3

Compound activity: PubChem, ICCB-Longwood Screening Facility, Harvard Medical School

An excerpt. The share of hits here may be higher or lower than overall.
